Source: PubChem BioAssay
VACV Venus inh: vaccinia inhibition (Venus reporter); Potency, µM (highest dose often 36.5 µM), for inactives: top-dose activity change, negative = inhibition, hits mostly inhibitors; 0.46% of 330,000 active; Vaccinia virus Venus reporter expression, fluorescence; active means well fitted inhibition curve with a large enough effect; inconclusive means small, poorly fitted or top-dose-only effect; inactive means no such curve, though single readings can be large or run the other way; tested in A549 cells; further: nearly all actives have a fitted effect of over 30% in size; inactives centre near -10
Vaccinia mCherry: inhibitors of vaccinia virus infection (mCherry reporter signal). Vaccinia virus mCherry reporter infection, fluorescence; about a quarter of the inactives have no number. Potency, µM (highest dose often 36.5 µM), inactives show top-dose activity change, negative = inhibition, actives largely listed as inhibitors. 0.63% of 310,000 active. AID 720579; active = well fitted inhibition curve with a large enough effect; inconclusive = small, poorly fitted or top-dose-only effect; inactive = no such curve, though single readings can be large or run the other way; tested in A549 cells; further: nearly all actives have a fitted effect of over 35% in size; inactives centre near -10
Starred values were filed as active, the others as inactive; i = inactive; u = inconclusive; x = no result given; & = joins results of further samples; [ ] = another dose, or the depositor's remark. On the % scale 0 is the no-effect control and ±100 the full control effect; potency means the concentration at half of the fitted maximal effect.

Under each structure: VACV Venus inh	Vaccinia mCherry
COc1ccc(C(=O)N2N=C(c3ccc(NS(C)(=O)=O)cc3)CC2c2cccs2)cc1 (stereo unspecified)
 : -24%	-15%
c1ccc(Oc2cccc3cccnc23)nc1
 : -6%	-7%
COc1ccc(CNC(=O)C(=O)NCC2CCCO2)cc1 (stereo unspecified)
 : -12%	-10%
Nc1c(NCc2ccccc2)c(=O)[nH]c(=O)n1Cc1ccccc1
 : -8%	x
CSc1ccc(/C=C(\C#N)C(=O)NC2CCCCC2C)cc1 (stereo unspecified)
 : -6%	-19%
Cc1occc1-c1nnc(SCC(=O)Nc2c(F)cccc2F)n1C
 : -3%	-13%
CC(=O)Nc1c(C)nn(-c2ccccc2)c1N1CCC(C(=O)Nc2ccccc2F)CC1
 : -11%[7.34 µM]	-11%[7.34 µM]
COCCNC(=O)CSc1nc2cc3c(cc2c(=O)n1CCCC(=O)NCc1ccc(OC)cc1)OCO3
 : 9%&-10%	-10%&-7%
CCOC(=O)N1CCN(CC(=O)c2c(C)[nH]c3ccccc23)CC1
 : -5%	i
Cc1nc2scc(-c3ccc(Cl)cc3)c2c(=O)n1N
 : -15%	-10%

(continued)
Under each structure: VACV Venus inh	Vaccinia mCherry
O=C(Nc1ccccc1)C1CCCN1/C=C/C(=O)C(F)(F)F (stereo unspecified)
 : -13%	i
O=C(CSc1nnc(-c2ccccc2F)n1C1CC1)N1CCCC1
 : -22%	i
O=C(Oc1c(Br)cc(Br)c2cccnc12)N1CCCCC1
 : -11%	u
CCN(CC(=O)Nc1c(F)cccc1F)C(=O)c1ccc(COc2ccccc2)o1
 : -4%	i
COc1ccc(C)cc1N(CC(=O)Nc1cccc(N(C)S(C)(=O)=O)c1)S(C)(=O)=O
 : -24%	-16%
CC(=O)NN1C(=O)c2ccccc2NC1c1cccc([N+](=O)[O-])c1 (stereo unspecified)
 : -11%	i
COc1cc(OC)c(NS(=O)(=O)c2ccc3oc(=O)c4ncn(C)c4c3c2)cc1Cl
 : -6%	-7%
CCOc1cc(/C=N/NS(=O)(=O)c2ccccc2)ccc1OS(=O)(=O)c1ccc(C)cc1
 : -18%	x
O=c1c2ccccc2nnn1CSc1nnc(-c2cccnc2)n1-c1ccccc1F
 : -3%	x
Cc1ccc(S(=O)(=O)N2CCCCC2)cc1NC(=O)c1ccc2ccccc2n1
 : -9%	i

(list continues)
Under each structure: VACV Venus inh	Vaccinia mCherry
O=C(CCCN1C(=O)/C(=C/c2cccc(Br)c2)SC1=S)Nc1cccnc1
 : -28%	u
c1cncc(CSc2ccc(-c3cccs3)nn2)c1
 : -22%	-12%
O=C(c1ccccc1F)N1CCOCC1
 : -4%	-24%
CCC(C)(O)C(=O)OC1C(=O)OC2CC3C(C)=CC(=O)C(O)C3(C)C3C4(O)OCC23C1C(C)C4O (stereo unspecified)
 : 0.32µM*	u
Cc1ccc(C(N)=S)c(C)c1
 : -16%	-12%
CN1CCC(NC(=O)Cc2c(F)cccc2Cl)CC1
 : -20%	-10%
O=c1cc(COn2nnc3ccc(C(F)(F)F)cc32)nc2sccn12
 : -26%	u
COc1ccc(CNC(=O)CN2CCN(S(=O)(=O)c3cccs3)CC2)cc1OC
 : -4%	i
CCN1CCN(C2=C(Cl)C(=O)N(Cc3ccccc3)C2=O)CC1
 : u	x
Cc1ccc(S(=O)(=O)N2CCOCC2)cc1NC(=O)COc1cccc(Oc2ccccc2)c1
 : -28%	-28%

Given as tab-separated lines: 4 of the compounds above
structure	VACV Venus inh	Vaccinia mCherry
Cc1ccc(C(N)=S)c(C)c1	-16%	-12%
CN1CCC(NC(=O)Cc2c(F)cccc2Cl)CC1	-20%	-10%
O=c1cc(COn2nnc3ccc(C(F)(F)F)cc32)nc2sccn12	-26%	u
COc1ccc(CNC(=O)CN2CCN(S(=O)(=O)c3cccs3)CC2)cc1OC	-4%	i

Next part.
Under each structure: VACV Venus inh	Vaccinia mCherry
O=C1C2CCCN2C(c2ccc(F)cc2)N1c1cccc(Cl)c1 (stereo unspecified)
 : -3%	7%
Cc1ccccc1C(=O)NC(=S)Nc1ncccn1
 : -10%	i
O=c1[nH][nH]c2c1C(c1ccc(F)cc1)OC(CCc1ccccc1)C2 (stereo unspecified)
 : -7%	-8%
C[C@H]1C=C(C(=O)NCc2nc3ccccc3[nH]2)O[C@@H](OCCCCO)C1
 : -13%	i
CCc1nc2c(OCC(=O)C(C)(C)C)cccn2c1N(C)C(=O)C(C)C
 : -3%	-1%
CCCc1c(-c2ccc(F)cc2F)ncn1Cc1cccc(-c2ccccc2)c1
 : u	u
COc1ccc(NC(=O)Cc2csc(C)n2)cc1
 : -3%	4%
COc1ccc(S(=O)(=O)N2CCC(C(=O)N[C@H](C(=O)N3CCCC3)C(C)C)CC2)cc1
 : -10%	-3%
Cc1nc(CCNC(=O)COc2ccccc2)cs1
 : -1%	25%
Cc1cccc(N2CCN(C(=O)Cc3c(C(=O)O)[nH]c4ccc(Cl)cc34)CC2)c1C
 : -6%	x

Next structures follow:
Under each structure: VACV Venus inh	Vaccinia mCherry
Clc1ccc(-c2csc3ncnc(N4CCc5ccccc5C4)c23)cc1
 : -2%	-5%
S=C(NC1CCCCC1)N1CCC(c2cnc[nH]2)CC1
 : -10%	0%
CC(C)n1nccc1N(Cc1ccc(Br)cc1)S(=O)(=O)c1ccccc1
 : -13%	-1%
COc1cc(N=c2ssnc2Cl)c(OC)cc1Cl
 : u	u
Cn1c(NCCCCO)nc2c1c(=O)n(Cc1ccc(Cl)cc1)c(=O)n2C
 : 3%	-13%
O=C(N/N=C/c1ccc2c(c1)OCO2)c1cc(-c2ccccc2)nc2ccccc12
 : 0%	u
CN(CC(=O)Nc1ccc(Cl)cc1)C(=O)CCc1c[nH]c2ccccc12
 : -23%	-15%
O=C(NCCC(=O)N1CCN(c2ccccc2O)CC1)c1ccc(Br)cc1
 : -19%	-27%
COc1ccc(NC(=S)N(Cc2cccnc2)Cc2ccco2)cc1
 : 1%	-2%
O=C(Nc1nccs1)[C@@H]1CC=C[C@@H]2CCN(C3CCCCC3)C(=O)[C@@H]21
 : -4%	-13%

Going on with the list:
Under each structure: VACV Venus inh	Vaccinia mCherry
CCN1CCN(C(=O)c2cc3nc(-c4ccccc4)cc(C(F)(F)F)n3n2)CC1
 : -4%	-11%
C[C@@H]1CCCCO[C@H](CN(C)C(=O)Nc2ccc(C(F)(F)F)cc2)[C@@H](C)CN([C@H](C)CO)C(=O)c2cc(NC(=O)Nc3ccc4c(c3)OCO4)ccc2O1
 : -13%	-14%
NCCNC(=O)c1c(O)c2cccc3c2n(c1=O)CCC3
 : -7%	0%
COCCN1CCc2nc(SCC(=O)Nc3ccc(C)c(Cl)c3)[nH]c(=O)c2C1
 : 6%	-10%
O=C(COC(=O)/C=C/c1cc(Br)ccc1F)Nc1ccc2[nH]c(=O)[nH]c2c1
 : -6%	i
COc1cccc(CNC(=O)CN2C(=O)N(c3cc(C)ccc3C)S(=O)(=O)c3ccccc32)c1OC
 : -5%	-9%
COc1ccc(C2CC(=O)c3cc(-c4nc(-c5cccc(Cl)c5)cs4)c(=O)[nH]c3C2)cc1 (stereo unspecified)
 : 0%	-3%
CCOC(=O)c1cn(Cc2c(C)c(C)c(C)c(C)c2C)nn1
 : -10%	i
CSCc1nc2scc(-c3ccccc3)c2c(=O)[nH]1
 : -21%	i
CCOC(=O)c1c(NC(=O)c2ccccc2OCC)sc2c1CCC(CC)C2 (stereo unspecified)
 : 6%	-4%

Next part:
Under each structure: VACV Venus inh	Vaccinia mCherry
O=C(CCC(=O)c1cccs1)NCc1ccncc1
 : -3%	-7%
CCOc1cccc2c1Oc1nc(-c3ccccc3)nc(SCC(=O)Nc3ccc(F)cc3)c1C2
 : -11%	i
CCOc1cc(/C=N/NC(=O)c2ccncc2)cc(Cl)c1OS(C)(=O)=O
 : -14%	-12%
Cc1ccc(NC(=O)c2ccoc2C)cc1C
 : -5%	i
CC1(C)C[C@H](O)[C@@]23C[C@@H](OC2=O)[C@]2(C)C(=CCC4[C@@]5(C)CC[C@H](O)C(C)(C)C5CC[C@]42C)[C@@H]3C1 (stereo partly specified)
 : -16%	i
O=C(c1ccc(NS(=O)(=O)c2cccs2)cc1)N1CCN(c2ccccc2Cl)CC1
 : 1%	-10%
O=C(Nc1ccc(Cl)cc1)c1csc(Cc2ccccc2)n1
 : -1%	i
O=C(CN1C(=O)NC2(CCCC2)C1=O)OCc1ccc(Cl)cc1Cl
 : -15%	i
O=[N+]([O-])c1ccc2c(c1)nc1n2CCCCC1
 : -7%	-6%
Cn1c(=O)c2cc(NC(=O)Cc3ccccc3F)ccc2n1C/C=C/c1ccccc1
 : -4%	i

(list continues)
Under each structure: VACV Venus inh	Vaccinia mCherry
Cc1cccc(NC(=O)CCCNC(=O)c2ccc(Cl)cc2)n1
 : 0%	-17%
O=C(Nc1ccc(OC(F)(F)F)cc1)c1cccc(-n2cnnn2)c1
 : -23%	u
Cc1nn(-c2ccccc2Cl)c(Cl)c1/C=C(\C#N)C(N)=O
 : -9%	i
O=C(C[C@H]1C[C@H](C(=O)N2CCCCC2)[C@@]2(CCc3ccccc3)c3[nH]c4cc(-c5ccco5)ccc4c3CCN2C1=O)NCc1cccc(C(F)(F)F)c1
 : -15%	u
CCOCCCn1c(=S)[nH]c2cc(C(=O)NCC(OC)OC)ccc2c1=O
 : -16%	i
Cc1cc(C(=O)N/N=C2/CC(C)CC(C)(C)C2)c(C)o1 (stereo unspecified)
 : -16%	-8%
Cc1ccc(S(=O)(=O)NCCC(=O)Nc2ncccc2O)cc1C
 : -14%	-19%
COc1cc(OC)cc(C(=O)N2CCN(C3CCCCC3)CC2)c1
 : -8%	-3%
CCOc1ccc(NC(=S)Nc2cccc3cnccc23)cc1
 : 1%	i
CCO[C@H]1OC(C(=O)NCc2ccccc2)=C[C@@H](C)[C@@H]1CCCO
 : -10%	-18%

More structures.
Under each structure: VACV Venus inh	Vaccinia mCherry
CC(C)(C)C(=O)Nc1ccc(/C=C/C(=O)c2ccco2)cc1
 : -12%	i
Cc1ccsc1CN(C(=O)COc1ccccc1Cl)C1CCS(=O)(=O)C1 (stereo unspecified)
 : -10%	-7%
N#C/C(=C\c1c[nH]c2ccccc12)C(=O)Nc1ncc(Cc2ccc(Cl)cc2Cl)s1
 : -19%	-14%
COc1cccc(-c2cc(C(=O)Nc3ccccc3)c3ccccc3n2)c1
 : -7%[7.34 µM]	i[7.34 µM]
CCCCn1c(SCC(=O)NCc2ccco2)nnc1-c1ccoc1C
 : 5%	-14%
CC1=C(C(=O)N2CCCCCC2)CC(CC(=O)NCc2ccco2)C(=O)N1Cc1ccccc1 (stereo unspecified)
 : -16%	i
COC(=O)CSc1nnc(SCc2ccccc2)s1
 : 0%	i
Cc1cnn(C(=O)c2cc(-c3ccccn3)nc3ccc(Cl)cc23)c1
 : -15%	-1%
COn1c(-c2ccccc2)nc2c1CCc1c-2no[n+]1[O-]
 : -24%	x
O=C(NCC1CCCO1)C1CCN(C2CCN(Cc3ccco3)CC2)CC1 (stereo unspecified)
 : -15%	-5%

Following part
Under each structure: VACV Venus inh	Vaccinia mCherry
CCc1[nH]nc(C(=O)N2CCCC(C(=O)c3cccc(OC(C)C)c3)C2)c1C (stereo unspecified)
 : -19%	-9%
CCC(C)(C)NC(=O)C(c1ccncc1)N(C(=O)Cn1nnc2ccccc21)c1cc2c(cc1C(C)=O)OCO2 (stereo unspecified)
 : 1%	-7%
COCCCNC(=O)NC(=O)c1ccccc1
 : 3%	-10%
Cc1ccc(C(=O)N2CCN(S(=O)(=O)c3ccc(C)cc3)CC2)cc1
 : -10%	i
CCCCCCOc1ccc(OC(=O)c2ccncc2)cc1
 : -9%	-27%
O=C(O)CCCC(=O)N1N=C(c2ccccc2)CC1c1ccc2nccnc2c1 (stereo unspecified)
 : -5%	i
CCOC(=O)C1=C(C)Nc2ncnn2C1c1cc(OC)ccc1OC (stereo unspecified)
 : -6%	i
C=CCn1c(O)c(N=Nc2ccccc2)c2ccccc21
 : -11%	u
Cc1ccc(C)c(N2CCN(C(=O)CSCc3ccccc3Cl)CC2)c1
 : -4%	-10%
CCCCS(=O)(=O)c1oc(-c2ccc(F)cc2)nc1S(=O)(=O)c1ccc(C)cc1
 : -10%[7.34 µM]	-3%[7.34 µM]

The list goes on:
Under each structure: VACV Venus inh	Vaccinia mCherry
Cc1ccccc1C(=O)n1nc(-c2cccnc2)nc1NCc1ccc(F)cc1
 : -9%	-19%
O=C(COC(=O)c1ccc(S(=O)(=O)C(F)F)cc1)NC(=O)NC1CCCCC1
 : -9%	i
C=CCN1C(=O)c2ccc(C(=O)N3CCN(S(=O)(=O)c4cccc(Cl)c4)CC3)cc2C1=O
 : -6%	-1%
CCCc1ccc(C2=Nn3c(nnc3C(C)C)SC2)cc1
 : -17%	u
Cc1ccc(OCC(=O)NCCCNC(=O)c2cccnc2)cc1
 : 1%	-11%
CCOc1cc(/C=N/O)ccc1OS(=O)(=O)c1ccc(C)cc1
 : -24%	-26%
COc1cc2sc(-c3ccc(S(C)(=O)=O)cc3)c(C(=O)NCc3ccc(C)o3)c2cc1OC
 : -20%	i
CS(=O)(=O)c1ccc(-c2nnn(CC(=O)Nc3ccc4c(c3)OCCO4)n2)cc1
 : -7%	-7%
Cc1oc(C)c2c(=O)cc(-c3ccc4c(c3)OCO4)cc(OC(=O)c3ccc(Cl)cc3)c12
 : 7%	-3%
O=C(CNC(=O)c1ccccc1F)N/N=C/c1ccc2c(c1)OCO2
 : -5%	i
COc1ccc(/C=C2/C(=O)N(c3ccccc3)N=C2C)cc1OC
 : -9%	-3%
CN(c1ccccc1)c1nc(N)c([N+](=O)[O-])c(N2CCOCC2)n1
 : -20%	-3%
O=C1CSC(c2ccc([N+](=O)[O-])cc2)N1c1ccc(O)cc1 (stereo unspecified)
 : -10%	-16%
